High-throughput results as filed in PubChem BioAssay.
BJeLR lethal: MLPCN primary cell-based screen for lethality selective to Ras in HRASV12 cells | BJeLR (HRASV12) viability, CellTiter-Glo ATP luminescence, 48 h; reference of the scale not given here | inhibition, % (concentration not given with the values) | actives 0.17% (n = 300,000);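 active = replicate mean above 50%; inconclusive = above 50% but judged a plate artefact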;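 note: 50 nL library stock added to about 25 µL; numbers are from one replicate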
Sa ugtP lethal: growth inhibition of ugtP-null S. aureus, primary screen, RN4220 ugtP deletion, OD600. growth inhibition, % (no concentration beside the values). actives 0.54% (n = 330,000). 16 h; some inactives read as strong as hits. AID 1259309, 2017;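 active = z-score under -3 and OD600 up to 0.15 on both plates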;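 note: plate controls were untreated wells for no effect and antibiotic for full effect; wells of about 80 µL received 100 nL stock; the first replicate is given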
PrP UTR inh: inhibition of PrP 5' UTR reporter expression. actives 0.35% (n = 340,000). cell-based PrP 5' UTR mRNA reporter, plate reader. inhibition, % (no concentration beside the values);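 active = every replicate at 50% or more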;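 note: 0 = median of the neutral control wells; tested in H4 reporter cells; numbers are from one replicate; inactives centre near -14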
Bead autofluor: counter-screen for toxin protease inhibitors: compound fluorescence | compound autofluorescence counterscreen, microsphere flow cytometry; stronger effect = higher value | fluorescence intensity (no concentration beside the values) | actives 3.1% (n = 360,000) | AID 624483;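 active = at least 3 SD above the mean of all compounds, about 16000 in these data; inconclusive = too few beads counted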;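 note: 100 nL of 1 mM stock went into each well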
RN4220 kill: growth inhibition of S. aureus RN4220, primary screen, OD600 | 16 h | inhibition, % (test concentration not listed) | actives 0.33% (n = 330,000);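 active = z-score of -3 or lower and OD600 up to 0.18 on both plates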;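 note: plate controls were untreated cells for no effect and reference antibiotic for full effect; stock transfer was 100 nL into about 80 µL; one replicate is shown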
Mtb hypoxia inh: PubChem AID 1159583; M. tuberculosis hypoxia-regulated fluorescent reporter, fluorescence; fluorescence inhibition, % (test concentration not listed); actives 0.1% (n = 300,000);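 active = 35 to 45% if threefold the growth effect, above 45% if 1.5-fold the growth effect; inactive = the rest, general growth blockers included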;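 note: wells of about 50 µL received 100 nL stock; 0% = vehicle wells and 100% = reference inhibitor wells; whole bacteria with a GFP reporter of the hypoxia response; strong numbers were not always called active; many hits fall short of the cut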
Mtb hypoxia inh growth: further read-out of Mtb hypoxia inh, marked with its call; growth inhibition, %; measured here: M. tuberculosis growth (absorbance);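 0% = vehicle and 100% = reference antibiotic; read after six days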
* hit, by the source's call; ? = inconclusive; · = not tested or not shown.

SMILES | PrP UTR inh | Bead autofluor | Mtb hypoxia inh | Sa ugtP lethal | Mtb hypoxia inh growth | BJeLR lethal | RN4220 kill
Nc1nonc1-n1nnc(C(=O)NN=Cc2ccccc2)c1CSc1ccccc1 | · | · | 5 | 8 | 1 | · | 4.3
COc1ccc(OC)c(-c2nc3c(C)n[nH]c(=O)c3[nH]2)c1 | -4 | 2865 | · | 5 | · | 1 | 2.5
COC(=O)c1ccc(C=NOCC(=O)Nc2cc(F)ccc2F)cc1 | · | · | 8 | -1 | 10 | · | 5.1
CCOc1cccc2cc(C(=O)Nc3nccs3)c(=O)oc12 | -36 | 8887 | 6 | 1 | 1 | -6 | 2.1
COc1cc(C(=O)c2ccccc2)c([N+](=O)[O-])cc1OC | · | 6845 | 4 | 9 | 11 | -2 | 2.8
C#CCSc1nnc(-c2ccc(C)cc2)o1 | -35 | 2341 | · | 3 | · | 8 | 6.9
COC(=O)c1c(NC(=O)CC2SCC(C(=O)OC)NC2=O)sc2c1CCCC2 (stereo not given) | -14 | 24791* | -3 | -10 | 3 | -1 | -2.3
Cc1c(C2C(C#N)=C(N)N(c3ccccc3C#N)C3=C2C(=O)CCC3)cnn1C (stereo not given) | 8 | 2053 | 14 | 11 | 6 | 1 | 7.5
Cc1cccc(C)c1NC(=O)CN(C)C(=O)c1ccc(-n2cncn2)c([N+](=O)[O-])c1 | 2 | 3916 | -12 | 2 | -10 | -1 | 2.5
CCOc1cccc(-c2nnc3sc(C4CCCCC4)nn23)c1 | 0 | 10405 | 2 | -18 | 3 | -1 | 19
Cn1c(N)c(C(=O)COC(=O)C2CCCCC2)c(=O)n(C)c1=O | -10 | 7891 | 6 | 11 | 3 | -15 | 5.6
Cc1ccc(C)n1NC(=O)c1ccccc1[N+](=O)[O-] | -37 | 4387 | 1 | 4 | 12 | -8 | 3.5
COc1ccc(NC(=O)CCNS(=O)(=O)c2ccc(Br)s2)cc1 | -70 | 11139 | 0 | -1 | -5 | -4 | -2.6
CC(C)c1ccc(S(=O)(=O)N2CCN(C(=O)CN3C(=O)NC4(CCCC4)C3=O)CC2)cc1 | -13 | 7176 | 1 | 2 | -3 | 8 | 0.9
Cc1ccc(-c2ccc(=O)n(CC(=O)NCC3COCCO3)n2)cc1 (stereo not given) | -14 | 5761 | -11 | 3 | 6 | -9 | 1.7
CCOc1ccc(N2C(=O)CSC2=NNC(=O)COc2ccc3ccccc3c2)cc1 | · | · | 4 | 11 | -2 | · | 3.1
COCc1cc(C)nc(OCC(=O)NN=Cc2ccc(C)cc2)c1C#N | · | · | -3 | 3 | -6 | · | -0.5
CCOC(=O)C1=CN(Cc2cccc(Br)c2)S(=O)(=O)N(C)C1C (stereo not given) | 47 | 3044 | 1 | 10 | 3 | · | 5.8
CCCCCC(=O)Nc1cccc(C2=NOC3(C2)C[C@@H](C(N)=O)N(C(=O)c2ccc(OC)cc2)C3)c1 (stereo not given in full) | 8 | 2915 | · | · | · | -1 | ·
COc1ccc(Cn2c(C)c(C)c(C#N)c2NC(=O)Nc2ccc(F)cc2)cc1 | -25 | 4629 | · | -2 | · | -6 | 1.7

Another view of part of the listing above:
Each structure is followed by: PrP UTR inh	Bead autofluor	Mtb hypoxia inh	Sa ugtP lethal	Mtb hypoxia inh growth	BJeLR lethal	RN4220 kill
COc1cc(C(=O)c2ccccc2)c([N+](=O)[O-])cc1OC
 : ·	6845	4	9	11	-2	2.8
C#CCSc1nnc(-c2ccc(C)cc2)o1
 : -35	2341	·	3	·	8	6.9
COc1ccc(NC(=O)CCNS(=O)(=O)c2ccc(Br)s2)cc1
 : -70	11139	0	-1	-5	-4	-2.6
CCOc1ccc(N2C(=O)CSC2=NNC(=O)COc2ccc3ccccc3c2)cc1
 : ·	·	4	11	-2	·	3.1
Nc1nonc1-n1nnc(C(=O)NN=Cc2ccccc2)c1CSc1ccccc1
 : ·	·	5	8	1	·	4.3

Continued:
SMILES | PrP UTR inh | Bead autofluor | Mtb hypoxia inh | Sa ugtP lethal | Mtb hypoxia inh growth | BJeLR lethal | RN4220 kill
CCC(=O)CC(c1ccc([N+](=O)[O-])cc1)c1c(O)c2ccccc2oc1=O (stereo not given) | -25 | 3075 | 2 | 12 | 4 | -1 | 8.7
Cc1ccc2c(c1)c1c(n2CCc2ccc(C)nc2)CCN(C)C1 | -22 | 2905 | 10 | -6 | 3 | · | 2.5
CN(C)S(=O)(=O)c1cccc(NC(=O)COC(=O)c2cccnc2Cl)c1 | 1 | 3844 | 8 | 5 | 4 | · | 6.3
COc1ccc(-c2cc(C(=O)OCc3ccccn3)c3ccccc3n2)cc1 | 7 | 3906 | 2 | -5 | -3 | -3 | 1.1
COc1cc(C(=O)Nc2nc3ccc(S(=O)(=O)N4CCOCC4)cc3s2)cc(OC)c1OC | -8 | ? | 0 | 2 | -2 | 6 | 4.8
Cc1ccc(-n2nnc3c(=O)oc4ccccc4c32)cc1 | -14 | · | 4 | -5 | 18 | -6 | -3.8
O=C(c1ccco1)N1CCN(C(=O)c2cc(-c3ccccn3)nc3ccc(Cl)cc23)CC1 | -18 | 2643 | · | 4 | · | -4 | 5.3
CCCCCC(=O)N/N=C(\C)c1ccc(N2CCCCC2)cc1 | 0 | 2707 | · | · | · | 1 | ·
CC(C)OP(=O)(OC(C)C)C(Nc1ccc([N+](=O)[O-])cc1)c1cccc([N+](=O)[O-])c1 (stereo not given) | -21 | 4645 | 3 | -8 | 4 | 10 | -1.0
COc1cccc(-c2nnc(NC(=O)Cc3cccs3)s2)c1 | -35 | 5596 | 12 | -4 | 4 | -6 | 6.1
CC(C)CCn1c(SCC(=O)OCn2nnc3ccccc3c2=O)nc2ccccc2c1=O | -6 | 9742 | 0 | -2 | 4 | 0 | 3.4
O=C(COc1ncnc2ccccc12)Nc1ccc(Cl)c(S(=O)(=O)N2CCOCC2)c1 | -10 | 3944 | -2 | 6 | -10 | 2 | 0.1
Cc1nnc(-c2ccccc2)nc1N(C)C | -32 | 5126 | 23 | 11 | 20 | 2 | 9.1
COc1ccccc1NC(=S)N=Nc1c(O)[nH]c2ccc(Br)cc12 | 15 | 4566 | 0 | -9 | 4 | 23 | 2.1
CCOc1ccc(N2C(=O)Nc3ccc(Br)cc3C2(O)C(=O)NC(C)C)cc1 (stereo not given) | -18 | 3771 | 10 | 4 | 8 | -8 | 2.0
CC1=NN(c2nc(-c3ccccc3)cs2)C(=O)C1N=Nc1ccccc1 (stereo not given) | -33 | 4603 | 9 | 24 | 3 | 1 | 22
N#CCCN(C(=O)COC(=O)C1CCN(S(=O)(=O)c2cccs2)CC1)c1ccccc1 | -19 | 4424 | 3 | 7 | 0 | -4 | 4.1
Cc1cc(NC(=O)CSc2nnc(-c3ccccc3)n2Cc2ccco2)no1 | -4 | 4279 | -5 | 3 | 4 | 3 | 7.6
CC(C)(O)C(=O)NNC(=S)Nc1cccc(C(F)(F)F)c1 | -27 | 4239 | 7 | 8 | 11 | 1 | 3.1
CCn1ncc(CNC(=O)C2(C)CC2(Br)Br)c1C (stereo not given) | -34 | 2086 | 16 | 9 | 11 | 16 | 4.9

SMILES | PrP UTR inh | Bead autofluor | Mtb hypoxia inh | Sa ugtP lethal | Mtb hypoxia inh growth | BJeLR lethal | RN4220 kill
CCc1ccccc1NS(=O)(=O)c1cc(C)ccc1OC | -29 | 2825 | · | -5 | · | -1 | 3.4
COCCSc1nnc(NC(=O)CSCc2ccccc2)s1 | -10 | 4185 | 14 | 2 | 9 | -6 | 3.1
Cc1cc(C(=O)NCC(=O)OCC(=O)NCCc2ccccc2)ccc1[N+](=O)[O-] | -17 | 3198 | 15 | 5 | 3 | 9 | 9.8
O=C(O)CN=C1NC2(CCCCC2)Cc2ccccc21 | -11 | 15480 | 1 | -2 | 13 | 14 | -0.2
CN(C)c1nc(=Nc2cccc(Cl)c2)ss1 | 14 | 3459 | · | · | · | -6 | ·
CCOC(=O)N1CCN(C(=O)CNC(=O)Cn2cnc3ccccc3c2=O)CC1 | -10 | 2892 | 12 | 7 | 3 | -3 | 6.0
COc1ccc(N2CCN(CCCNC(=O)CC3Oc4ccc(C)cc4NC3=O)CC2)cc1 (stereo not given) | -10 | 4824 | · | 12 | · | -1 | 2.6
COc1cccc(/C=C/C(=O)NNC(=O)CCN2CCN(Cc3ccccc3)CC2)c1 | -17 | 4161 | -3 | 2 | 3 | 3 | 7.5
Fc1ccc(NC(=S)Nc2ccc3nccnc3c2)cc1 | -33 | 4286 | 0 | -3 | -9 | 0 | 0.0
NC(=O)c1nnn(-c2ccc([N+](=O)[O-])cc2)c1-c1ccccc1 | -12 | 4380 | 13 | 3 | -1 | 2 | 1.5
CC(C)c1ccc(CNC(=O)C(=O)Nc2nccs2)cc1 | -15 | 2114 | 4 | 4 | 2 | -4 | 4.0
CCOC(=O)C1CCCN(C2CCN(Cc3nc(-c4ccccc4)no3)CC2)C1 (stereo not given) | -24 | 2449 | 5 | 3 | 9 | 7 | 0.1
O=[N+]([O-])c1ccc2nc(NCCCO)nc(-c3ccccc3)c2c1 | -7 | 2477 | 10 | 5 | 3 | -4 | 7.4
COc1ccc(S(=O)(=O)N2CCCC2)cc1C(=O)O | -10 | 3994 | -3 | 0 | -1 | -3 | -0.4
COc1cc(C=O)ccc1Oc1ccc(S(=O)(=O)N2CCOCC2)cc1[N+](=O)[O-] | -20 | 4256 | 5 | -1 | 2 | · | 3.4
CCOC(=O)CC1C(=O)NCCN1C(=O)c1ccc(Cl)c(Cl)c1 (stereo not given) | -25 | 3771 | 11 | 5 | 1 | -9 | 0.3
COc1ccc(NC(=O)N(C)C[C@H]2Oc3c(NC(=O)C4CC4)cccc3C(=O)N([C@H](C)CO)C[C@@H]2C)cc1 | -3 | 2961 | 4 | -7 | 11 | · | -11
O=C(CSc1nc2c(c(=O)n1-c1ccc(Br)cc1)SCC2)Nc1nccs1 | -18 | 4770 | · | 17 | · | 2 | 2.0
Cc1ccc(C(C)C)c(OCc2ccc(C(=O)NN=Cc3ccc(O)c(O)c3)cc2)c1 | · | · | 6 | 100* | -3 | · | 58
CC1(C)CC(=O)C2=C(C1)Oc1nc3ccccc3cc1C2C(C#N)C#N (stereo not given) | -11 | 2812 | · | -1 | · | 13 | 0.5

SMILES | PrP UTR inh | Bead autofluor | Mtb hypoxia inh | Sa ugtP lethal | Mtb hypoxia inh growth | BJeLR lethal | RN4220 kill
CCOC(=O)CNC(=O)CSc1nnc(-c2c[nH]c3ccccc23)n1CC | -13 | 4702 | 9 | -7 | 5 | 0 | 2.4
O=C(COC(=O)CC12CC3CC(CC(C3)C1)C2)Nc1ncc(Cl)cc1Cl | -10 | 24856* | 4 | -3 | 3 | 10 | 6.7
Cc1onc(-c2ccccc2)c1C(=O)N1CCN(c2ncccn2)CC1 | -18 | 3386 | 20 | 9 | 8 | 7 | 8.4
Cc1ccccc1S(=O)(=O)NNC(=O)C(=O)NNc1ccccn1 | -27 | 2849 | -4 | 7 | -1 | -14 | -0.8
CN(Cc1cnccn1)C(=O)CC1C(=O)NCCN1Cc1cccc(F)c1 (stereo not given) | -45 | 5872 | 4 | 4 | -9 | -7 | 0.9
Cc1cc(C)n2nc(CCc3ccccc3)nc2n1 | -13 | 23082* | 10 | 0 | 15 | -2 | 3.3
O=C(NC1CCCCC1)C(c1ccccc1)N(C(=O)c1csnn1)C1CC1 (stereo not given) | -21 | 3486 | 2 | 4 | 10 | -4 | 0.1
CCOc1nc(-c2ccccc2Cl)ccc1C#N | -35 | 20479* | 13 | 3 | 4 | 12 | 15
O=C(Cn1[nH]c(=O)c2ccccc2c1=O)OCC(=O)c1ccc(Br)cc1 | -2 | ? | -8 | 14 | -8 | 0 | 5.5
CCCCNC(=O)c1cc(C)no1 | -15 | 2396 | 7 | -2 | 3 | -9 | 1.0
Cc1ccccc1CN1CCN(CC2CC3C=CC2C3)CC1 (stereo not given) | -18 | 3197 | 1 | -1 | 3 | 3 | 6.0
Cc1ccc(NC(=O)COc2ccc(CCO)cc2-n2nc3ccccc3n2)cc1C | -8 | 2651 | 5 | -17 | 3 | 4 | 5.2
Cc1c(C(=O)Nc2ccc(OC(F)(F)F)cc2)sc2nc3n(c(=O)c12)CCC3 | -4 | 2873 | 1 | 5 | 6 | -11 | -13

Rows were taken by chance; about 4% have a hit in one of these screens.
